NS1 inh = influenza NS1 inhibition; 270,000 tested, 0.4% active; AID 2326; S. cerevisiae slowed by influenza A NS1, growth recovery by OD600; Potency, µM (titrated, usually from 46.1 µM), without a hit: at the top dose activity, positive = more growth; also: actives are rising curves; nearly all actives have a fitted effect of over 50% in size
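A cell-based growth assay was used: compounds that relieve NS1-induced slow growth of budding yeast raise OD600. Assay medium was yeast nitrogen base with ammonium sulphate and -URA supplement, pH 6.0, with 2% galactose.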
Cruzain inh Det = blocks cruzain activity in presence of Triton detergent; 200,000 tested, 0.43% active; AID 1478; purified cruzain, Z-FR-AMC fluorescence, 0.01% Triton; Potency, µM, for inactives: max response, negative = inhibition, hits mostly inhibitors; active = well fitted curve in the direction sought with a large enough effect; inconclusive = small, poorly fitted or top-dose-only effect, or another doubt; inactive = no such curve, though single readings can be large; an effect the other way counts as inactive or inconclusive;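 also: plate controls were neutral wells for no effect and buffer without enzyme for full effect; nearly all actives have a fitted effect of over 40% in size; top concentration of the series not given in the record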
Target sequence (P25779 123-467 limits assumed): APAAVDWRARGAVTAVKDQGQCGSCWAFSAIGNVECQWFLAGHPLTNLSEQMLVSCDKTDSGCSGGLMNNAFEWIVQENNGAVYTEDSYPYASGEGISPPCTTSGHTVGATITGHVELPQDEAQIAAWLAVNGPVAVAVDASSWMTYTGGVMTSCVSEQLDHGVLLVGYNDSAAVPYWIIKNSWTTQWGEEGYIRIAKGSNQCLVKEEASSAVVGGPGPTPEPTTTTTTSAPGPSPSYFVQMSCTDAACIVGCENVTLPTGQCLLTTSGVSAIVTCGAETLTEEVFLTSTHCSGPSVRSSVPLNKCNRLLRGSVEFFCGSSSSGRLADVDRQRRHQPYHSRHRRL
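Z-FR-AMC hydrolysis (2 uM substrate) by cruzain (1.5 nM) monitored kinetically at ex 360/em 450 nm after 15 min room-temperature compound exposure; 0.01% Triton X-100, pH 5.5, 5 mM DTT.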
Lassa entry inh = blocks Lassa virus binding to or entry into cells | Lassa virus pseudotype entry inhibition, cell reporter; control for the full effect not named in the record | Potency, µM (highest dose often 37.9 µM), without a hit: at the highest dose activity change, negative = inhibition, hits mostly inhibitors | 300,000 tested, 1.2% active; active means well fitted inhibition curve with a large enough effect; inconclusive means small, poorly fitted or top-dose-only effect, or effect the other way; inactive means flat fitted curve, though single readings scatter; tested in HEK293 cells; also: % is scaled to controls: 0 for no effect and ±100 for the full control effect; nearly all actives have a fitted effect of over 50% in size; luciferase read-out
Marburg entry inh = Marburg virus entry inhibition. AID 540276. 300,000 tested, 1.8% active. Potency, µM (highest dose often 37.8 µM), for inactives: top-dose activity change, negative = inhibition, usual class: inhibitors. Marburg virus pseudotyped entry inhibition, cell reporter; control for the full effect not named in the record; about a third of the inactives were read at about 46 µM; active = well fitted inhibition curve with a large enough effect; inconclusive = small, poorly fitted or top-dose-only effect, or effect the other way; inactive = flat fitted curve, though single readings scatter; tested in HEK293 cells; about a fifth of its hits are not listed in these tables; also: % is scaled to controls: 0 for no effect and ±100 for the full control effect; luciferase read-out
Cruzain inh noDet = blocks cruzain activity in detergent-free assay. purified cruzain, Z-FR-AMC fluorescence, no detergent. P25779. Potency, µM, without a hit: max response, negative = inhibition, most hits filed as inhibitors. AID 1476. 200,000 tested, 2.3% active; active = well fitted curve in the direction sought with a large enough effect; inconclusive = small, poorly fitted or top-dose-only effect, or another doubt; inactive = no such curve, though single readings can be large; an effect the other way counts as inactive or inconclusive;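 also: plate controls were enzyme without inhibitor for no effect and buffer without enzyme for full effect; nearly all actives have a fitted effect of over 40% in size; top concentration of the series not given in the record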
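Detergent-free condition (0.00005% Triton X-100) in acetate buffer pH 5.5 with DTT. 1.5 nM enzyme and compound were pre-mixed 15 min, then 2 uM Z-FR-AMC substrate added; reaction progress from fluorescence change between first and third reads (60 s).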
SARS PLP yeast = blocks SARS-CoV papain-like protease in a yeast assay. Potency, µM (doses to about 32.9 µM), without a hit: at the top dose activity, positive = growth rescue. 330,000 tested, 0.19% active. S. cerevisiae expressing SARS-CoV PLpro, growth rescue; control for the full effect not named in the record; also: 0% is about no effect; nearly all actives have a fitted effect of over 55% in size; growth read by luminescence after 48 h
RE007 growth inh = less growth of the S. pombe RE007 Vpr strain. Potency, µM (top dose mostly 92.2 µM), without a hit: top-dose activity change, negative = less growth. S. pombe RE007 Vpr strain, BacTiter-Glo ATP luminescence, 24 h; control for the full effect not named in the record. 360,000 tested, 0.21% active; active = well fitted falling curve with a large enough effect; inconclusive = small, poorly fitted or top-dose-only effect; inactive = no such curve, though single readings can be large or run the other way;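 also: % is scaled to controls: 0 for no effect and ±100 for the full control effect; nearly all actives have a fitted effect of over 50% in size; the assay follows cell death caused by Vpr and the record does not say whether a fall means rescue or toxicity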
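Fission yeast strain RE007, carrying one chromosomally integrated HIV-1 vpr copy, was seeded at OD 0.01 in PMG+AL medium with 23 nL pinned compound. After 24 h at 30 °C and 99% humidity, viability was read by BacTiter-Glo luminescence.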
StopGo reporter = lowers the luciferase signal of an FMDV 2A StopGo reporter; human cells with a luciferase reporter of 2A StopGo recoding; control for the full effect not named in the record; Potency, µM (highest dose often 57.9 µM), inactives show at the top dose signal change, negative = less light; 410,000 tested, 1.2% active; active = well fitted falling curve with a large enough effect; inconclusive = small, poorly fitted or top-dose-only effect; inactive = no such curve, though single readings can be large or run the other way; tested in HEK293T cells; also: % is scaled to controls: 0 for no effect and ±100 for the full control effect; nearly all actives have a fitted effect of over 45% in size; luciferase light after 4 h
* = called active by the depositor; ? = inconclusive; nt = not tested or not shown; & = joins results of further samples; [ ] = dose if it differs, or a comment. Unless noted, calls follow the shape of the dose curve; as a rule, active means well fitted rising curve with a large enough effect; inconclusive means small, poorly fitted or top-dose-only effect; inactive means no such curve, though single readings can be large or run the other way. Potency is read from the fitted curve at half-maximal effect. Rows are unselected; any-hit rate near 4.8%.

SMILES	NS1 inh	Cruzain inh Det	Lassa entry inh	Marburg entry inh	Cruzain inh noDet	SARS PLP yeast	RE007 growth inh	StopGo reporter
Cc1cc(C(F)(F)F)nc(SCC(=O)NC2CCCCC2)n1	1%	nt	nt	12%[46.1 µM]	nt	1%	1%	5%
O=C(c1ccc(Cl)c(S(=O)(=O)N2CCCCCC2)c1)N1CCOCC1	nt	nt	7%	-1%[46.1 µM]	nt	1%	-15%	-1%
CCC(CO)n1c(SCc2cc([N+](=O)[O-])cc3c2OCOC3)nc2ccccc2c1=O (stereo not given)	25%	-5.7%	?	0%	-13%	21%	15%	?
O=c1cc(N2CCc3ccccc32)[nH]c(=O)n1-c1ccc(Br)cc1	6.3µM*	-0.7%	nt	nt	-16%	14%	3%	-12%
Cc1cc(-c2nnc(SCc3ccccn3)o2)no1	-16%	1.7%	25%	8%	1%	7%	-13%	nt
Cc1ccc2cc3c(N)nn(C(=O)c4cccc(F)c4)c3nc2c1	nt	-0.4%	8%[46.1 µM]	4%[46.1 µM]	-4%	nt	nt	-1%
Cc1ccc(/C=C/c2onc(C)c2S(=O)(=O)N2CCC(C(=O)N(CCC(C)C)Cc3ccco3)CC2)cc1	nt	0.2%	-26%[46.1 µM]	nt	-15%	nt	nt	-23%
O=C(Nc1ccccc1)/C(=C/c1ccc2c(c1)OCO2)NC(=O)c1ccco1	9%	-3.4%	5%	5%	4%	8%	15%	-2%
COc1ccc(/C=N/NC(=O)c2ccoc2C)cc1COc1c(C)cccc1C	-115%	-2.0%	?	5.6µM*	-28%	-39%	-19%	10µM*
Cc1ccnc2nc(C(=O)OCC(=O)c3ccccc3)nn12	nt	nt	11%[46.1 µM]	14%[46.1 µM]	nt	-1%	40%	12%
CCCc1cc(=O)oc2cc(OC3CCCCC3=O)ccc12 (stereo not given)	-3%	nt	nt	nt	nt	-1%	5%	-1%
COc1ccc2oc(C(=O)OCC(=O)NCc3ccccc3OC)c(C)c2c1	nt	nt	-7%	1%[46.1 µM]	nt	0%	3%	-19%
O=C(NCc1ccco1)c1ccc(COc2cccc3ccccc23)cc1	5%	-8.6%	-20%	8%	-1%	-6%	nt	-12%
Cc1ccc(C)n1-c1cccc(S(=O)(=O)N2CCOCC2)c1	nt	nt	?	0%[46.1 µM]	nt	-4%	5%	-8%
CC(=O)N(C)c1ccc(NS(=O)(=O)c2cccc3nsnc23)cc1	11%	nt	10%	3%	nt	-3%	-22%	40%[activator]
CN(c1ccccc1)S(=O)(=O)c1ccc(Cl)c(C(=O)Nc2ccccc2N2CCOCC2)c1	nt	nt	?	?	nt	1%	2%	-27%
COc1cccc(CC(NC(C)=O)C(=O)NC2CCN(C(=O)c3ccc(Cl)cc3)CC2)c1OC (stereo not given)	-1%	nt	5%	4%[46.1 µM]	nt	1%	-6%	6%
CC1CC(=O)Nc2ccccc2N1C(=O)Nc1ccc(F)cc1 (stereo not given)	8%	nt	1%[46.1 µM]	-1%[46.1 µM]	nt	0%	-5%	-1%
Cc1c(Cl)cccc1NC(=O)COC(=O)c1c2c(nc3ccccc13)CCN(Cc1ccccc1)C2	?	-3.4%	?	2.6µM*	-28%	-9%	-4%	?
CC(C)c1cc(C(C)C)c(S(=O)(=O)NNC(=O)c2ccncc2)c(C(C)C)c1	10%	-5.8%	-6%	13%	17%	8%	6%	71%[activator]
CN(C1=NS(=O)(=O)c2ccccc21)c1ccc(OC(=O)c2ccccc2)cc1	4%	nt	-3%[46.1 µM]	?	nt	4%	3%	-5%
O=C(NCCCN1CCOCC1)C1(c2ccccc2)CCCC1	14%	1.4%	12%	13%	3%	-4%	-14%	-4%
O=C(c1cc2cc(Cl)ccc2[nH]1)N1CCN(c2ccccc2F)CC1	6%	nt	nt	nt	nt	-1%	13%	28%
CCOC(=O)c1cccc(NC(=O)c2cc3cc4cc(OC)ccc4nc3s2)c1	nt	-0.3%	-3%[46.1 µM]	0%[46.1 µM]	?	nt	nt	12%

Taken from above.
CN(c1ccccc1)S(=O)(=O)c1ccc(Cl)c(C(=O)Nc2ccccc2N2CCOCC2)c1 – RE007 growth inh: 2%
O=C(c1cc2cc(Cl)ccc2[nH]1)N1CCN(c2ccccc2F)CC1 – NS1 inh: 6%
CC(C)c1cc(C(C)C)c(S(=O)(=O)NNC(=O)c2ccncc2)c(C(C)C)c1 – Cruzain inh noDet: 17%

Random excerpt: 6 compounds from above, in no set order.
SMILES	NS1 inh	Cruzain inh Det	Lassa entry inh	Marburg entry inh	Cruzain inh noDet	SARS PLP yeast	RE007 growth inh	StopGo reporter
O=C(NCCCN1CCOCC1)C1(c2ccccc2)CCCC1	14%	1.4%	12%	13%	3%	-4%	-14%	-4%
COc1cccc(CC(NC(C)=O)C(=O)NC2CCN(C(=O)c3ccc(Cl)cc3)CC2)c1OC (stereo not given)	-1%	nt	5%	4%[46.1 µM]	nt	1%	-6%	6%
CN(C1=NS(=O)(=O)c2ccccc21)c1ccc(OC(=O)c2ccccc2)cc1	4%	nt	-3%[46.1 µM]	?	nt	4%	3%	-5%
Cc1c(Cl)cccc1NC(=O)COC(=O)c1c2c(nc3ccccc13)CCN(Cc1ccccc1)C2	?	-3.4%	?	2.6µM*	-28%	-9%	-4%	?
CN(c1ccccc1)S(=O)(=O)c1ccc(Cl)c(C(=O)Nc2ccccc2N2CCOCC2)c1	nt	nt	?	?	nt	1%	2%	-27%
CC1CC(=O)Nc2ccccc2N1C(=O)Nc1ccc(F)cc1 (stereo not given)	8%	nt	1%[46.1 µM]	-1%[46.1 µM]	nt	0%	-5%	-1%

The list continues.
SMILES	NS1 inh	Cruzain inh Det	Lassa entry inh	Marburg entry inh	Cruzain inh noDet	SARS PLP yeast	RE007 growth inh	StopGo reporter
O=C(Cn1ncc2c3ccccc3n(Cc3ccc(Cl)cc3)c2c1=O)N1CCCCCC1	nt	-2.6%	?	13%[46.1 µM]	11%	nt	nt	-17%
NS(=O)(=O)c1ccc(NC(=O)COC(=O)CCC2CCCC2)cc1	nt	nt	-3%[46.1 µM]	4%[46.1 µM]	nt	0%	-1%	0%
O=C(CN1CCN(C(=O)c2ccccc2)CC1)Nc1ccc(Br)cn1	-8%	-4.9%	-15%	-3%[46.1 µM]	1%	7%	-3%	?
CCN(CC)CCn1c2c(c(SCC(=O)NCc3ccccc3)nc1=O)CCCC2	nt	nt	-4%[46.1 µM]	-1%	nt	0%	3%	4%
CCC(=O)Nc1ccc(C2C(=O)c3ccccc3C2=O)cc1	?	nt	?	10µM*	nt	1%	5%	20µM*
Cn1cc(/C=C(\NC(=O)c2ccccc2)C(=O)NCCN2CCOCC2)c2ccccc21	6%	nt	nt	nt	nt	-5%	-7%	-13%
COc1cc(C)nc(OCCNS(=O)(=O)c2cc(C)ccc2C)n1	-10%	2.1%	11%	-3%	5%	9%	-16%	8%
COc1cccc(OC)c1C(=O)OCC(=O)N1CCC(Cc2ccccc2)CC1	nt	nt	-6%[46.1 µM]	5%[46.1 µM]	nt	-3%	-22%	-6%
CCc1ccccc1NC(=O)C1CCN(c2nn3c(=O)cc(C)nc3s2)CC1	nt	-4.8%	21%[46.1 µM]	-9%[46.1 µM]	-1%	nt	nt	23%
Cc1csc(NC(=O)Cc2ccc(Cl)cc2)n1	nt	nt	?	4%[46.1 µM]	nt	nt	4%	24%
COc1ccccc1NC(=S)NCc1ccc2c(c1)OCO2	-4%	-4.6%	?	5%	1%	2%	nt	33%[activator]
CCOC(=O)CN1C(=O)N(CC(=O)OCC)C(c2ccccc2)(c2ccccc2)C1=O	-2%	nt	-14%[46.1 µM]	?	nt	1%	-14%	4%
CCCOC(=O)c1c(N)sc(C(=O)OCC)c1C	-2%	-11%	-19%	36%	-21%	8%	-7%	56%[activator]
CC1CCCN(CCCNC(=O)c2cn(C)c3ccc(S(=O)(=O)N(C)C4CCCCC4)cc3c2=O)C1 (stereo not given)	5%	1.1%	20%&11%[46.1 µM]	19%&14%[46.1 µM]	-11%	-1%	-3%	13%&7%
CCOC(=O)N1CCN(C(=S)Nc2ccc(C)c(C)c2)CC1	5%	-2.1%	-28%	-4%	6%	10%	8%	7%
CCN(CC)C(=O)c1ccc(NC(=O)CCn2nc(-c3ccc(Cl)cc3)c3ccccc3c2=O)cc1	nt	-10%	-29%[46.1 µM]	?	?	nt	nt	-11%
O=c1c2c(nc3nc(Cc4ccccc4)[nH]n13)CCC2	3%	2.4%	2%	14%[46.1 µM]	4%	5%	12%	-21%
Oc1csc(Cc2nc(-c3ccc(-c4ccccc4)cc3)cs2)n1	6%	3.1%	9%	-4%	10µM*	-4%	9%	16%
O=Cc1ccc(OCc2cn3ccccc3n2)cc1	nt	nt	-17%	?	nt	-2%	-15%	31%[activator]
CC(Sc1nnc(N)s1)C(=O)Nc1ccc2c(c1)OCO2 (stereo not given)	nt	nt	?	8%[46.1 µM]	nt	3%	-23%	-6%
Cc1ccc(-n2cc(-c3ccccc3)c3c(N4CCC(C)CC4)ncnc32)cc1Cl	nt	0.7%	7%[46.1 µM]	nt	-1%	nt	nt	-6%
CC(=O)N1CCc2c(sc3c2c(=O)n(-c2ccc(C)cc2)c(=O)n3Cc2c(F)cccc2Cl)C1	nt	-1.9%	nt	9%[46.1 µM]	-11%	nt	nt	-22%
COC(=O)c1ccc(C)c(NC(=O)c2ccc(Cl)c([N+](=O)[O-])c2)c1	10%	-5.6%	?	?	-10%	-2%	-6%	-24%
Cc1cc(C)cc(NC(=O)CN2CCN(c3ncccn3)CC2)c1	-8%	-3.9%	-2%	-9%	5%	5%	1%	27%
O=C(COC(=O)c1ccc(Cl)nc1)Nc1ccccc1OC(F)F	nt	nt	-13%	-9%[46.1 µM]	nt	-12%	-6%	-11%
CCCNC(=S)N1CC2(C)CN(C(=O)C(=O)OC)CC(C)(C1)C2=O	nt	nt	-21%	-11%[46.1 µM]	nt	8%	4%	41%[activator]

High-throughput results (PubChem)
